Screening data deposited in PubChem BioAssay by National Center for Advancing Translational Sciences (NCATS).
HPGD inh: qHTS Assay for Inhibitors of HPGD (15-Hydroxyprostaglandin Dehydrogenase); AID 894, 2007; Potency, µM, inactives show at the highest dose activity change, negative = inhibition, usual class: inhibitors; actives 4.3% (n = 150,000); purified HPGD, NADH fluorescence kinetic, PGE2 substrate; 15-hydroxyprostaglandin dehydrogenase [NAD(+)] (Homo sapiens), P15428; active = well fitted inhibition curve with a large enough effect (not every such curve was filed as active); inconclusive = small, poorly fitted or top-dose-only effect, or another doubt; inactive = no such curve, though single readings can be large or run the other way;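 also: top concentration of the series not given in the record; plate controls included wells without enzyme; inactives centre near -10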
Target sequence (P15428 whole entry, looked up): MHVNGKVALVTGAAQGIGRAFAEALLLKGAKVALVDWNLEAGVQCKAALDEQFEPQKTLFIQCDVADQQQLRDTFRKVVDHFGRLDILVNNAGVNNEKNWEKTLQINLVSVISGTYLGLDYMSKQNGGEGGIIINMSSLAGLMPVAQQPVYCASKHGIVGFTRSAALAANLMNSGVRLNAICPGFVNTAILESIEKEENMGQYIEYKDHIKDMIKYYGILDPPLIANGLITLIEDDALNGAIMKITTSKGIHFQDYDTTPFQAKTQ
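20 nM HPGD preincubated 15 min at room temperature with compound in 50 mM Tris-HCl pH 8, 0.01% Tween 20. Started with 1 mM NAD+ and 30 uM prostaglandin E2; NADH fluorescence (360/450 nm) read 5 times over 30-s intervals, last minus first.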
The depositor's hits bear a star; ? = inconclusive; [ ] = dose if it differs, or a comment. % is scaled to controls: 0 for no effect and ±100 for the full control effect; potency is read from the fitted curve at half-maximal effect. A portion of the library; the hit share may differ from the screen's.

item	mol	HPGD inh
1	COc1ccc(OCC(=O)Nc2ccccc2OC(F)F)cc1	?
2	CCOC(=O)c1c(N)n[nH]c1-c1ccccc1	-8%
3	CCOC(=O)C(C)(C)Sc1nc2c(cnn2-c2ccc(C)cc2)c(=O)[nH]1	-1%
4	Cc1[nH]c(C)c2c(=O)n(-c3ccccc3)ncc12	1%
5	Cc1cc(NC(=O)CSc2nc(-c3ccccc3)c(C#N)c(=O)[nH]2)no1	-20%
6	O=C1CS/C(=C/C(=O)c2ccccc2)N1	20µM*
7	Cc1cc(C)nc(N/N=C/c2ccccc2OCc2ccc(Br)cc2)n1	-11%
8	Cc1nccn1CCC(=O)O	-2%
9	Cc1ccc2nc3c(cc2c1)c(NS(=O)(=O)c1ccccc1)nn3CC(C)C	-5%
10	O=C(NCc1ccco1)c1cc2n(n1)C(C(F)(F)F)CC(c1ccc(Cl)c(Cl)c1)N2 (configuration not stated)	-4%
11	CCN(CC)C(=O)CSc1nc2ccccc2c(=O)n1-c1cccc(OC)c1	-4%
12	CCS(=O)(=O)Nc1ccc(NC(C)=O)cc1	25µM*
13	Cc1nc(C(=O)Nc2ccccc2Cl)cc2c1[nH]c1ccccc12	-9%
14	Cn1c(-c2ccc(Cl)cc2)cnc1NCc1cc2c(cc1[N+](=O)[O-])OCO2	0%
15	COc1ccc(CC(=O)OCC(=O)Nc2ccc3c(c2)OCCO3)cc1OC	-4%
16	CCC1CCCCN1C(=O)CSc1nnc(-c2ccco2)o1 (configuration not stated)	-4%
17	O=C(Cc1coc2cc3c(cc12)CCC3)NCC1(N2CCCCC2)CCCCC1	-3%
18	COc1ccc(C(=O)N[C@H](C(=O)NCC2CCCCC2)C(C)C)cc1	-16%
19	CC1(c2ccccc2)NC(=O)N(Cc2ccc([N+](=O)[O-])cc2)C1=O (configuration not stated)	-4%
20	CN(C)c1ccc(NC(=O)Nc2cccc(Cl)c2)cc1	-12%
21	CCOC(=O)c1cnn2cc(-c3[nH]ncc3[N+](=O)[O-])cnc12	?
22	Oc1[nH]c2ccccc2c1N=Nc1ccc(F)cc1	-4%
23	CC(C)(C)NC(=O)c1ccc2c(c1)C(=O)N(C1CCCCC1)C2=O	-2%
24	COc1nccnc1NS(=O)(=O)c1ccc(N=Cc2c(C)[nH]n(-c3ccccc3)c2=O)cc1	?
25	CCCNC(=O)NS(=O)(=O)c1cnccc1Sc1ccc(Cl)c(Cl)c1	-18%
26	CCc1nnc(NC(=O)c2ccc(S(=O)(=O)N3CCOCC3)cc2)s1	-5%
27	O=C(CSc1nnnn1-c1cccc2ccccc12)N1CCOCC1	-3%
28	Cc1cc(Nc2ccc(F)cc2)n2nc(C)nc2n1	-18%
29	COC(=O)C1=C(C)NC2=C(C1c1ccc(O)cc1)S(=O)(=O)c1ccccc12 (configuration not stated)	-9%
30	O=C(CC12CCC(CC1)C2)NCc1ccc2c(c1)OCO2	16µM*
31	CCC(O)C(C)(C)C (configuration not stated)	4%
32	CCn1cc(C(=O)N2CCN(Cc3ccc4c(c3)OCO4)CC2)c(=O)c2ccc(C)nc21	-4%
33	N#Cc1nc(-c2cccs2)oc1NCCCN1CCOCC1	?
34	O=C(CSc1nc2cc(C(F)(F)F)ccc2n1Cc1ccccc1)NC1CCS(=O)(=O)C1 (configuration not stated)	-7%
35	CCOc1cc(/C=N/O)ccc1OCc1ccc(F)cc1	-5%
36	Cc1nn2c(-c3ccc(Cl)cc3)ccnc2c1-c1ccccc1	-10%
37	CC1(C)CC(=O)C2=C(C1)OC(N)=C(C#N)C2c1ccccc1 (configuration not stated)	-17%
38	c1ccc(OCCCn2nnc(-c3ccncc3)n2)cc1	-13%
39	Cc1cccc(NC(=O)c2ccc([N+](=O)[O-])o2)n1	36%[activator]
40	Nc1nc(NCc2ccco2)nc(N2CCCCC2)c1[N+](=O)[O-]	-5%
41	CCOC(=O)c1c(C)nc(-c2ccccc2)nc1NC(=O)CC	-11%
42	C(/C=C/C=C/Nc1ccccc1)=Nc1ccccc1	-1%
43	COc1ccc(-c2cc3nc4c(c(=O)n3[nH]2)CCC4)cc1	?
44	Cn1c(SCc2cccc(Cl)c2)nc(C(F)(F)F)cc1=O	-15%
45	COC(=O)c1ccc(C)c(NS(=O)(=O)c2ccc(C)c([N+](=O)[O-])c2)c1	-13%

Reprinted: nos. 43 to 45
item	mol	HPGD inh
43	COc1ccc(-c2cc3nc4c(c(=O)n3[nH]2)CCC4)cc1	?
44	Cn1c(SCc2cccc(Cl)c2)nc(C(F)(F)F)cc1=O	-15%
45	COC(=O)c1ccc(C)c(NS(=O)(=O)c2ccc(C)c([N+](=O)[O-])c2)c1	-13%

Continued:
item	mol	HPGD inh
46	COc1ccc(N(CC(=O)NCc2ccccc2)S(=O)(=O)c2c(C)noc2C)cc1	-7%
47	Cc1cc(NC(=O)COC(=O)c2n[nH]c3ccccc23)no1	-6%
48	O=c1c(-c2ccc(Cl)cc2)[n+]([O-])c2ccccc2n1OCc1ccccn1	-17%
49	Cn1c(CSc2ncn[nH]2)nc2ccccc21	2%
50	Cc1cc2c3c(c1C)C1(C(=O)N3C(C)(C)CC2C)C(C#N)=C(N)Oc2n[nH]c(C)c21 (configuration not stated)	1%
51	CCCc1nc(N2CCOCC2)c2sc(=S)n(-c3ccccc3)c2n1	-4%
52	Nc1ccccc1C(=O)N=Nc1[nH]c(N)c2ccccc12	-12%
53	O=C(COC(=O)Cc1cn2ccsc2n1)NC12CC3CC(CC(C3)C1)C2	0%
54	Fc1ccc(Cc2nnc(-c3cccs3)o2)cc1	?
55	CC(=O)Nc1cccc(OCc2ccc(S(=O)(=O)Cc3ccccc3)cc2)c1	-9%
56	O=C(CCC1CCCCC1)NCc1ccncc1	-1%
57	Cc1nc(SCC(=O)Nc2c(C)n(C)n(-c3ccccc3)c2=O)[nH]c(=O)c1Cc1ccccc1	-7%
58	CC(C)(C)c1cc(S(=O)(=O)CCc2ccccn2)cc(C(C)(C)C)c1F	-12%
59	N#Cc1c(-c2ccc(Cl)cc2)c(C#N)c(=O)n(N)c1N	-20%
60	CN1CCN(c2ccc([N+](=O)[O-])cc2NC(=O)c2ccccc2)CC1	-25%
61	CCOC(=O)c1sc(=S)n2c1[nH]c(=O)c1ccc(C(=O)OC)cc12	8.9µM*
62	CCN1CCN(/C=N/c2nc(C)cs2)CC1	-8%
63	CC(=O)c1cccc(NC(=O)N[C@@H](CC(C)C)C(=O)O)c1	-5%
64	CS(=O)(=O)N1CCC2(CCN(Cc3nccs3)CC2)CC1	-6%
65	Cc1ccc(N=C(c2cccs2)N2CCOCC2)cc1	6%
66	Cc1ccc(-c2nc3sc4c(c3c(=O)n2N)CC(C)(C)OC4)cc1	?
67	N=C1/C(=C/c2cccn2-c2cccc([N+](=O)[O-])c2)C(=O)N=C2SC=CN12	1%
68	O=C(COC(=O)C1c2ccccc2Oc2ccccc21)Nc1ccc2c(c1)OCO2	-8%
69	COC(=O)c1ccc(CSc2nnc(CNC(=O)c3ccc(OC)cc3)o2)o1	-17%
70	COc1ccc(CC(=O)NC(=S)Nc2ccc(S(N)(=O)=O)cc2)cc1	-3%
71	c1ccc(-c2nnc3sc(Cc4cccs4)nn23)cc1	-25%
72	Cc1c(C(=O)NCc2ccccn2)oc2ccc(S(=O)(=O)N3CCOCC3)cc12	-18%
73	Fc1ccc(C(CCCn2nnc(-c3cccnc3)n2)c2ccc(F)cc2)cc1	-5%
74	O=[N+]([O-])c1cc(S(=O)(=O)Nc2ccccc2)ccc1-n1nnc2ccccc21	-25%
75	CN(c1ccc(C(=O)NCCSCc2ccc(Cl)cc2)cc1)S(=O)(=O)c1ccccc1	-14%
76	COc1ccc(CNC(=O)C(C)N(Cc2ccco2)C(=O)c2snc(C(N)=O)c2N)cc1 (configuration not stated)	?
77	O=C(CC1SC(=O)N(Cc2cccc3ccccc23)C1=O)Nc1nccs1 (configuration not stated)	-7%
78	O=C(Nc1ccccc1)C1C2CCC3C(CCC21)C3(Cl)Cl (configuration not stated)	-7%
79	Cc1ccc(S(=O)(=O)Nc2ccc(Br)cc2C(NCC(=O)O)c2ccccc2)cc1 (configuration not stated)	18%
80	Cc1noc(C)c1C(=O)OCC(=O)Nc1cccc(S(=O)(=O)N(C)C)c1	-9%
81	COc1ccc(OC)c(C(=O)CN2CCN(S(=O)(=O)c3ccc(Br)cc3)CC2)c1	-29%
82	Cn1c2ccc(F)cc2c2ncn(CCN3CCOCC3)c(=O)c21	?
83	Cc1cc(C)nc(-n2nc(C)cc2NC(=O)CNC(C)c2ccccc2)n1 (configuration not stated)	-4%
84	CC(C)Cn1[nH]c2c3c(ccc2c1=O)C(=O)c1ccccc1C3=O	2µM*
85	Cc1cc(C(=O)OCCO)c(C#N)c(N)n1	?
86	COc1cccc(NC(=O)c2ccc(S(=O)(=O)N3CCCCC3)cc2)c1	-5%
87	CC(=O)NC1C(=O)N(CC(C)C)c2ccccc21 (configuration not stated)	-8%
88	Cc1cccc(Nc2nnc(SCC(=O)NC3CCCc4ccccc43)s2)c1C (configuration not stated)	?
89	O=C(Nc1cccc(S(=O)(=O)NCc2ccco2)c1)c1cc(-c2ccc(F)cc2)nc2ccccc12	?
90	COc1ccc(Nc2nc(N)nc(CSC(=S)N3CCN(c4ccccc4)CC3)n2)cc1	-10%
91	CC(=N/O)/C(=N\O)c1ccc(C)o1	-9%
92	O=S(=O)(NC1CC1)c1ccc(S(=O)(=O)N2CCCc3ccccc32)cc1	-4%
93	CCCC/S(C)=N/S(=O)(=O)c1ccc(C)cc1 (configuration not stated)	1%
94	C[C@H](CCC(=O)O)[C@H]1CC[C@@H]2[C@@H]3CC[C@H]4C[C@@H](O)CC[C@@]4(C)[C@@H]3C[C@H](O)[C@@]21C	-8%
95	CS(=O)(=O)Nc1ccc(C(=O)NC2CC3CCC2C3)cc1 (configuration not stated)	-5%
96	C=CCn1c(SCCN2CCOCC2)nc2c1c(=O)[nH]c(=O)n2C	-19%
97	Cc1cccc(-n2ncc(C#N)c2N)c1	-7%
98	Cc1ccccc1CN(c1ccc(C(=O)Nc2cccnc2)cc1)S(C)(=O)=O	-5%
99	Cc1c(CN(C)C)c2c(n1Cc1ccccc1)C(=O)c1ccccc1-2	0%
100	CCOc1ccc(CNC(=O)CCn2c(=O)oc3ccccc32)cc1	-9%
101	CCOc1c2ccc(C(=O)NCc3ccc(C)cc3)cc2nn1CCOC	?
102	Fc1ccc(OCCOCCNCC2CCCO2)cc1 (configuration not stated)	-14%
103	CCNC(=O)[C@H]1O[C@H](n2cnc3c(N)nc(NCCc4ccc(CCC(=O)O)cc4)nc32)[C@@H](O)[C@@H]1O	-12%
104	CC(CCc1ccccc1)NC(=O)/C=C/c1ccccc1 (configuration not stated)	-4%
105	CCCC(C)C(=O)Nc1ccccc1C(=O)OCC (configuration not stated)	-14%

(listing goes on)
item	mol	HPGD inh
106	CCCn1c(C2CC(=O)N(c3ccc(C)cc3)C2)nc2ccccc21 (configuration not stated)	-24%
107	CCOC(=O)c1cc2c(nc1N)CC(C)(C)OC2	?
108	O=C(CSc1nnc(CNC(=O)c2c(F)cccc2Cl)o1)Nc1ccc2c(c1)OCCO2	-7%
109	COc1ccc(NC2CC(=O)N(C)C2=O)cc1 (configuration not stated)	-10%
110	COc1ccc(S(=O)(=O)NC(C)C)cc1C(=O)NC1CCCCC1	-18%
111	Cc1cc(C)nc(SCC(=O)N/N=C/c2cccs2)n1	-13%
112	COc1cccc(-c2csc(NC(=O)Oc3ccccc3)n2)c1	-11%
113	CCN(CC)CCOC(=O)c1ccc(NC(=O)C(C)NC(=O)C23CC4CC(CC(C4)C2)C3)cc1 (configuration not stated)	0%
114	Cc1nc(C)c2c(=O)cc(-c3ccccc3)[nH]c2n1	-29%
115	CN(/N=C/c1ccncc1)C1=NS(=O)(=O)c2ccccc21	-2%
116	CCN(CC)C(c1ccc(C)cc1)c1nnnn1C1CCCCC1 (configuration not stated)	-5%
117	O=C(CCN1CCC(c2ccccc2)C1)c1cccs1 (configuration not stated)	-28%
118	Cc1cc(C(=O)N/N=C2\CC(=O)CC(C)(C)C2)n[nH]1	-13%
119	CCOc1cc(C(=O)Nc2ccc(S(=O)(=O)N3CCOCC3)cc2)cc(OCC)c1OCC	-8%
120	CCCc1cc(Nc2c(C)n(C)n(-c3ccccc3)c2=O)n2c(nc3ccccc32)c1C#N	?
121	COc1ccc(NC(=O)N(Cc2ccc(C)cc2)Cc2cccnc2)c(OC)c1	-2%
122	Cc1sc2nc(CC(N)=O)[nH]c(=O)c2c1-c1ccccc1	2%
123	COc1ccc(OC)c(C2=NOC(C(=O)NCc3ccco3)C2)c1 (configuration not stated)	?
124	Nc1nc(OCC(F)(F)F)cc(Oc2ccccc2F)n1	-8%
125	O=C(Nc1ncccn1)c1cc([N+](=O)[O-])cc([N+](=O)[O-])c1	-10%
126	CCOc1ccccc1CN1CCN(S(C)(=O)=O)CC1	-1%
127	Cc1ccc(S(=O)(=O)N/N=C\c2cn(-c3ccccc3)nc2-c2ccccc2)cc1	-17%
128	CCS(=O)(=O)c1ccc(S(=O)(=O)CC)s1	-7%
129	O=C(O)C1CCCN(S(=O)(=O)c2ccc(F)cc2)C1 (configuration not stated)	-12%
130	COc1ccc(N2C(=O)CC(NCc3ccncc3)C2=O)cc1 (configuration not stated)	-5%
131	COc1cccc(-c2nn3c(-c4ccco4)nnc3s2)c1	?
